# ClpP mod: qHTS Assay for Activators of ClpP | ATP-dependent Clp protease proteolytic subunit (Bacillus subtilis (strain 168)), P80244 | purified B. subtilis ClpP, FRET peptide cleavage, 20 min | Potency, µM (series often up to 57.5 µM), for inactives: at the top dose activity change, negative = active | actives 1.9% (n = 340,000); active = well fitted falling curve with a large enough effect; inconclusive = small, poorly fitted or top-dose-only effect; inactive = no such curve, though single readings can be large or run the other way; also: potency is read from the fitted curve at half-maximal effect; the source files actives as falling curves though it sought activators and does not explain the sign; nearly all actives have a fitted effect of over 65% in size; many hits overshoot -100%
# Target sequence (P80244 whole entry, looked up): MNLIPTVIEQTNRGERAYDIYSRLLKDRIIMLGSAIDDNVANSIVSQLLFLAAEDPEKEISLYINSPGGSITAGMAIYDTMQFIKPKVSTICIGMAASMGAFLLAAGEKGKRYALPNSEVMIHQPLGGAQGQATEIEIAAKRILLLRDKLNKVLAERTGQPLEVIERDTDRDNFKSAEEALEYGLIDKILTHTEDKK
#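 FRET quenching reversal measured ClpP activation: 10 microg/mL B. subtilis ClpP at pH 8 with the FRET-FV decapeptide, read at 430 nm after 320 nm excitation. The 20-min minus 0-min signal was scaled between DMSO/no-enzyme wells and ADEP (5.8 microM final).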
# Menin MLL FP FL: menin-MLL binding inhibition, fluorescein peptide; Fluorescence polarization, fluorescein-MLL peptide displacement from menin; FP activity change, % at 61.4 µM; 290,000 tested, under 10 active; inconclusive = falling polarisation curve, or a change in total fluorescence; inactive = total fluorescence flat and polarisation flat or rising; no compound was filed as active; the % refers to the polarisation; negative = inhibition;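 also: % of control where 0% means no effect; inhibitors lower the polarisation; unlabelled MLL peptide was the positive control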
# TRPV1 PAM: enhances activation of the human vanilloid receptor TRPV1; Q8NER1; TRPV1-expressing cells, Fluo-8 calcium influx, capsaicin EC20 potentiation; host cell line not named in the record; control for the full effect not named in the record; potentiation, % at 8.33 µM; actives 0.02% (n = 320,000); active means potentiation above 80%; inconclusive means 30% to 80%; inactive means below 30%; also: 0% is about no effect
#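 TRPV1-expressing cells were cultured overnight at 35.5C and loaded with Fluo-8 calcium dye for 40 to 90 min at room temperature. After a 10 s baseline, compound was added and calcium influx was read kinetically for 3 min (ex 480/em 520 nm).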
# TRPML1 blocker: inhibitors of human TRPML1 channel | Q9GZU1 | TRPML1-inducible cells, Ca2+ dye fluorescence, FDSS; stronger effect = lower value; inhibition of EC80 agonist-evoked calcium signal | activity change, negative = inhibition, % (test concentration not listed) | actives 0.02% (n = 390,000); in the data active means activity change below about -50%; inconclusive means about -30% to -50%; inactive means above about -30%;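 also: stimulus is agonist 54-4 at its EC80 concentration; % is scaled to controls: 0 for no effect and ±100 for the full control effect; compound concentration not given in the record; the text of the record puts the active cut at -80%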
# Target sequence (Q9GZU1 whole entry, looked up): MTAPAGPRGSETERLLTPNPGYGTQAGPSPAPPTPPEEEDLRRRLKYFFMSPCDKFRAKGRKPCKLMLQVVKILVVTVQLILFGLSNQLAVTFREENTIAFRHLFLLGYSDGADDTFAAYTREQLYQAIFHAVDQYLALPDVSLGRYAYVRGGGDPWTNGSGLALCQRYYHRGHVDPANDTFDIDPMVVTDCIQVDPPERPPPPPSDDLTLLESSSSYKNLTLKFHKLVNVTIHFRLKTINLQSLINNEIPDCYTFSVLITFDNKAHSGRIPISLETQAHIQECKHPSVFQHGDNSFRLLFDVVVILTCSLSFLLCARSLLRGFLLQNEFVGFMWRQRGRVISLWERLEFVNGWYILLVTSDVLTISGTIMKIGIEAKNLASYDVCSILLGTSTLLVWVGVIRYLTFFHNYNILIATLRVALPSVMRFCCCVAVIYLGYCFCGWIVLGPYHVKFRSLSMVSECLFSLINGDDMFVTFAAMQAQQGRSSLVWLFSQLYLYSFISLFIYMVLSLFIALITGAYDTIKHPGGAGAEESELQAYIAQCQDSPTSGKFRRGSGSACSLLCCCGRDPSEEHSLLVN
#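 Tet-induced TRPML1-DL cells loaded with Ca8 no-wash calcium dye were read kinetically on FDSS. Compound addition was followed by EC80 agonist 54-4 (4 uM final); inhibition was read over 110 s.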
# gsp antag: gsp mutant antagonism; gsp-mutant cells, cAMP HTRF, 30 min; control for the full effect not named in the record; Potency, µM (doses to about 76.9 µM), without a hit: at the top dose activity change, negative = inhibition, actives largely listed as inhibitors; actives 0.4% (n = 340,000); active = falling curve of any shape with a large fitted effect; inconclusive = falling curve, mostly with a smaller effect; inactive = flat or rising curve; cell line not stated here;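 also: intracellular cAMP measured with PDE inhibitor Ro 20-1724 present during compound exposure; potency is read from the fitted curve at half-maximal effect; % is scaled to controls: 0 for no effect and ±100 for the full control effect; nearly all actives have a fitted effect of over 65% in size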
#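 G418-selected cells were plated in DMEM/10% FBS for 16-24 h at 37C, then treated with compounds plus the PDE inhibitor […] (300 uM solution added) for 30 min at 37C. Intracellular cAMP was measured by HTRF after 30 min lysis at room temperature.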
# Sfp PPTase inh: blocks B. subtilis Sfp PPTase activity; Biochemical Sfp PPTase activity, qHTS; Potency, µM, for the others: max response, negative = inhibition, actives largely listed as inhibitors; actives 3.5% (n = 310,000); AID 1490; active = well fitted inhibition curve with a large enough effect; inconclusive = small, poorly fitted or top-dose-only effect, or another doubt; inactive = no such curve, though single readings can be large or run the other way;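 also: the enzyme is Sfp with the accession as filed and its product quenches rhodamine fluorescence; potency is read from the fitted curve at half-maximal effect; 0% = enzyme reaction without inhibitor and -100% = no enzyme wells; top concentration of the series not given in the record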
#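 Compounds were incubated with enzyme (final 15 nM) for 15 min at room temperature before substrate addition started the reaction. Fluorescence at 525 nm excitation, 598 nm emission was recorded immediately and after 30 minutes.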
# gsp ag: activates gsp, the McCune-Albright syndrome mutation. gsp mutant cells, cAMP HTRF, 30 min; control for the full effect not named in the record. Potency, µM (series often up to 76.9 µM), for inactives: at the top dose activation (cAMP increase), hits mostly activators. actives 0.13% (n = 340,000). AID 624287; active = well fitted activation curve with a large enough effect; inconclusive = small, poorly fitted or top-dose-only effect, or another doubt; inactive = no such curve, though single readings can be large or run the other way; cell line not stated here;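 also: phosphodiesterase inhibitor Ro 20-1724 added with compounds to block cAMP breakdown; potency is read from the fitted curve at half-maximal effect; nearly all actives have a fitted effect of over 60% in size; about a fifth of the inactives were tested at one dose only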
#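 Cells stably selected in G418 were plated at 2000/well, grown 16-24 hr, then given compounds in DMSO with the PDE inhibitor […] (300 uM solution added) for 30 min at 37C; cAMP was read by HTRF.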
# * = called active by the depositor; ? = inconclusive; nt = no result given; & = joins results of further samples; [ ] = dose if it differs, or a comment.
# Second line of a record – TRPML1 blocker	Menin MLL FP FL	gsp ag	TRPV1 PAM	Sfp PPTase inh	ClpP mod	gsp antag
O=C(CSC1=NNC(c2ccccn2)S1)Nc1cccc(Cl)c1 (centres undefined)
  -8.8	1.5	5.6%[15.4 µM]	-5.7	0.3%	nt	4.1%
c1ccc(C2=Nc3c(ccc4ccccc34)C(c3ccncc3)=NN2)cc1
  23.3	5.9	-6.3%[15.4 µM]	-6.5	-15.3%	nt	?
Cc1[nH]n(-c2ccccc2)c(=O)c1C=Nc1ccc(S(=O)(=O)N(C)C)cc1
  -3.4	4.3	14.0%	-4.2	-0.7%	1.3%	0.0%
CN(C)S(=O)(=O)c1ccccc1C#N
  -15.1	1.4	-2.7%	-1.3	-1.3%	-2.9%	-1.3%
O=C(NCC1CCCO1)c1cccc(S(=O)(=O)NCc2ccccc2)c1 (centres undefined)
  -2.1	-1.1	-4.9%	4.5	15.9%	0.9%	-6.1%
COc1ccc(-c2cc(C3CCN(CC(O)C(F)(F)F)CC3)[nH]n2)cc1 (centres undefined)
  16.0	0.6	-2.4%	2.1	12.8%	-2.1%	15.4%
CCN1C(=O)c2cccc3c(NC(=O)C4CCCCC4)ccc1c23
  14.1	2.5	8.2%	8.5	1.4%	0.5%	-14.7%
COc1ccc(CC(=S)NCCc2ccccc2)cc1
  -9.8	1.9	-15.0%	19.2	14.1µM*	0.8%	-5.0%
O=C(NCCCCc1ccccc1)C1CC(c2cccc(F)c2)=NO1 (centres undefined)
  -1.1	-0.5	nt	-16.0	-2.0%	-0.5%	-5.4%
CCCCOc1ccc(NC(=O)c2cnc(C)cn2)cc1
  2.5	-0.8	5.4%	5.0	-6.9%	-1.1%	-8.9%
CC1CN(S(=O)(=O)c2cccc3nsnc23)CC(C)O1 (centres undefined)
  6.8	-0.8	1.3%	-12.2	6.5%	1.0%	-29.9%
CS(=O)(=O)N1CCC(C(=O)N2CCN(c3ccc(F)cc3)CC2)CC1
  23.7	-0.2	3.5%[15.4 µM]	6.5	8.5%	-1.0%	3.0%
COC1(OC)N=C(N)C2(C#N)C(c3ccc4c(c3)OCO4)C12C#N (centres undefined)
  12.2	2.1	0.2%	-0.9	9.3%	-11.3%	1.8%
CN1CCN(C(=O)/C(=C/c2ccccc2Cl)NC(=O)c2ccccc2)CC1
  -3.9	-4.1	-5.0%[15.4 µM]	-9.8	13.1%	-8.0%	9.6%
CCN1CCN(CCCN(Cc2cccs2)C(=S)Nc2ccccc2C)CC1
  1.8	-3.6	12.4%	5.4	6.0%	nt	6.9%
Cc1ccc2nc(SCc3nnc(-c4cccs4)o3)[nH]c2c1
  -7.6	2.4	-12.7%	-3.8	-17.3%	-4.9%	1.9%
C[C@H](CO)N1C[C@H](C)[C@@H](CN(C)Cc2cccc(C(F)(F)F)c2)OCc2cnnn2CCCC1=O
  4.9	nt	-49.7%[inhibitor]	nt	nt	1.1%	nt
Nc1sc2c(c1C(=O)NC1CC1)CCCC2
  -21.2	nt	1.8%	nt	nt	-7.8%	-8.6%
O=C1C(=O)N(Cc2cccnc2)C(c2ccc(Br)cc2)/C1=C(\O)c1ccc2c(c1)OCCO2 (centres undefined)
  4.6	3.0	8.91µM*	7.7	18.5%	1.5%	11.7%
Cc1nn(Cc2ccc(C(=O)N3CCCC3)o2)c(C)c1[N+](=O)[O-]
  -12.9	-1.1	-16.0%	0.8	-1.8%	-0.2%	15.9%

# Further entries.
# Second line of a record – TRPML1 blocker	Menin MLL FP FL	gsp ag	TRPV1 PAM	Sfp PPTase inh	ClpP mod	gsp antag
O=C(Nc1ccc(Oc2ccc3ccccc3c2)cc1)c1ccco1
  1.9	8.0	-1.3%	-3.3	7.6%	15.8µM*	?
COc1cc(NC(=S)N2CCc3ccccc3C2)cc(OC)c1
  -3.0	-2.7	-4.7%	-1.8	15.1%	nt	15.8%
Cc1cc(C)cc(NC(=O)CSc2nc(=O)n(CCCN3CCOCC3)c3c2CCCC3)c1
  25.5	nt	10.3%[15.4 µM]	28.6	nt	-2.7%	-11.7%
CCCn1c(=O)c2ccccc2n2c(SCC(=O)Nc3cc(C)on3)nnc12
  24.1	1.9	1.3%	-18.4	4.3%	-1.4%	-1.8%
CSc1ccccc1NC(=O)COc1ccccc1Cl
  -10.0	-0.7	26.9%	-9.4	-20.5%	0.8%	-4.1%
Cc1ccc(NC(=O)c2cc3ccccc3o2)cc1
  0.8	-4.7	?	-13.1	7.6%	1.1%	-10.6%
Nc1ccc(C(=O)OCC(=O)Nc2ccc3c(c2)OCO3)cc1[N+](=O)[O-]
  19.2	3.9	10.0%	7.7	10.6%	-2.3%	9.1%
O=Cc1ccc(-c2ccc(C(=O)O)cc2)o1
  1.2	2.3	30.1%	0.5	-13.9%	3.6%	-16.0%
COc1cccc(CN(C)C(=O)c2ccccc2Sc2ccccc2C#N)c1OC
  -11.4	nt	-0.8%	?	7.3%	-0.5%	-9.1%
O=C(O)Cn1c(-c2ccccc2)nc2ccccc21
  -0.4	-0.6	?	-4.6	21.6%	?	9.5%
CCC(C)(C)NC(=O)CN(C(=O)CCC(=O)Nc1ccccn1)c1ccc(F)c(Cl)c1
  -4.9	1.3	7.4%	-1.4	2.8%	0.0%	1.2%
Cn1c(SCC(=O)NNC(=S)Nc2ccccc2)nnc1-c1ccccc1
  24.5	4.6	4.4%	3.2	14.5%	0.4%	-10.3%
COC(=O)c1sccc1NC(=S)N1CCN(c2ccccc2F)CC1
  -0.5	4.0	1.6%[15.4 µM]	-5.4	-9.1%	-2.3%	-14.2%
Cc1ccc(S(=O)(=O)/N=C(\N)c2ccc(Cl)cc2)cc1
  12.3	5.4	-6.5%[15.4 µM]	-6.5	-5.1%	nt	-1.8%
NS(=O)(=O)c1ccc(NC(=S)NCc2ccccc2Cl)cc1
  25.5	1.9	0.3%	17.1	-15.5%	-2.0%	2.0%
COC(=O)c1cc(-c2cccc(OC)c2)n[nH]1
  -2.6	-3.9	-33.6%[inhibitor]	5.2	-4.1%	1.0%	23.4%
Clc1ccc(-n2c(SCc3nc4ccccc4[nH]3)nnc2-c2ccncc2)cc1
  -3.0	1.9	?	-9.1	25.1%	-2.1%	10.3%
O=C(Cc1cc(=O)[nH][nH]1)N/N=C/c1cccc(Cl)c1Cl
  2.4&15.0	-0.6&6.7	?	2.8&23.4	16.8%&15.9%	0.9%&-16.7%	8.9%&7.1%
CCOC(=O)CNS(=O)(=O)c1ccc(C)cc1
  0.9	-0.9	-2.2%	-2.3	24.3%	2.6%	0.3%
Cn1c(=O)c(=O)n(C)c2cc(S(=O)(=O)N3CCCC3C(=O)NCc3cccnc3)ccc21 (centres undefined)
  -4.7	4.5	22.0%[15.4 µM]	5.3	15.0%	nt	1.8%

# (list continues)
# Second line of a record – TRPML1 blocker	Menin MLL FP FL	gsp ag	TRPV1 PAM	Sfp PPTase inh	ClpP mod	gsp antag
O=C(c1ccco1)N1CCN=C1SCc1cccc(F)c1
  -10.9	-2.2	-33.0%[inhibitor]	-5.5	-5.4%	-4.1%	-3.2%
O=C(NC(CC(=O)N1CCN(c2ccccc2)CC1)c1ccccc1)c1ccccc1Cl (centres undefined)
  19.8	7.1	-6.0%[15.4 µM]	?	3.2%	0.7%	-5.0%
N#Cc1ccc(C23CC4(C2)[C@H](CN(Cc2ccc(-c5ccccc5)cc2)[C@@H]4c2ccccc2)C3c2ccc(C(F)(F)F)cc2)cc1 (some centres undefined)
  4.8	1.2&2.9	nt	19.9	19.9%&9.2%	-3.1%	10.5%
O=C(COC(=O)COc1ccc(Cl)cc1Cl)NC1CC1
  -1.0	nt	-57.7%[inhibitor]	nt	nt	-0.3%	13.9%
C=C(C)c1cccc(C(C)(C)NC(=O)Nc2ccc(OC)nc2)c1
  7.6	?	-1.3%[15.4 µM]	-23.3	8.1%	nt	-0.6%
COC(=O)C1C2CCC(C2)C1C(=O)OCC(=O)c1ccc(C)cc1 (centres undefined)
  13.0	-0.9	4.3%	3.8	7.5%	-1.7%	-14.4%
CCCC[n+]1ccn(-c2nc3ccccc3nc2[N-]S(=O)(=O)c2cccs2)c1
  -14.1	?	9.9%[15.4 µM]	-3.6	35.5µM*	nt	-4.1%
CNc1ccc(SC#N)cc1
  4.8	-3.2	-23.2%[15.4 µM]	-10.1	-4.6%	nt	-62.2%
O=C(Nc1ccc(C(=O)O)cc1)Nc1cccc2ccccc12
  10.3	1.8	1.3%	15.7	1.7%	-12.0%	1.3%
COc1ccc(-c2nc(C=O)cs2)cc1
  5.2	0.8	-2.5%[15.4 µM]	-1.3	10.5%	nt	-1.4%
O=C(NNC(=O)c1csc(-c2cccnc2)n1)c1ccccc1
  10.8	3.9	-9.9%[15.4 µM]	-0.3	89.1µM*	-18.0%	6.8%
CCc1cc(=O)[nH]c(SCC(=O)N2CCC(Cc3ccccc3)CC2)n1
  -22.8	nt	-14.5%	7.6	nt	-13.8%	-27.1%
Cc1cc(C(=O)N=Nc2c(O)n(C(C)C)c3ccccc23)n[nH]1
  8.3	2.4	18.3%	-26.1	-7.8%	0.9%	4.2%
O=C(NC(=S)Nc1ccc(S(=O)(=O)Nc2nccs2)cc1)C1CC1
  -14.3	-0.1	-14.6%	0.5	9.4%	1.2%	-18.5%
CC(CCc1ccccc1)NC(=O)CN1C(=O)NC2(CCCCC2C)C1=O (centres undefined)
  25.9	nt	21.2%	-4.5	nt	0.8%	9.8%
O/C(=C\c1ccc2ccccc2n1)c1ccncc1
  -0.1	nt	15.2%	?	nt	1.3%	-14.1%
CCc1nnc(NC(=O)CSc2nc3ccccc3c(=O)n2CCCOC)s1
  -18.6	-1.0	?	?	2.6%	-1.3%	-5.4%
CCN(CC)C(=O)NCc1c(C)cc(C)cc1C
  6.7	0.6	15.5%[15.4 µM]	18.2	4.9%	nt	4.4%
COc1nc(Oc2ccc(C(=O)OCC(N)=O)cc2)nc(N(C)C)n1
  60.1	4.6	-28.0%	-6.0	11.5%	1.0%	2.7%

# Screening data: PubChem, National Center for Advancing Translational Sciences (NCATS)
